RanGTP-Impb inh: inhibitors of RanGTP-importin-beta interaction, primary screen, biochemical, FRET, CFP-Ran, YFP-importin-beta, homogeneous; cell-free CFP-Ran/YFP-importin-beta FRET ratio; AID 2216, 2009; Ran GTPase (GTP-bound) - importin-beta complex; inhibition, % (no concentration beside the values); hit rate 1.1% among 300,000;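 active = most replicates above 15%; inconclusive = exactly half above 15%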;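 note: 0% = DMSO wells and 100% = Ran loaded with GDP instead of GTP; wells of about 40 µL received 100 nL stock; the first replicate is given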
LANA-H2A inh: blockers of LANA interaction with H2A/H2B – biochemical, FP readout, HTS, primary screen. hit rate 0.6% among 320,000. cell-free LANA-H2A/H2B peptide, fluorescence polarization. inhibition, % (no concentration beside the values); in the data active = inhibition mostly above about 10%, no sharp cut-off; inactive = mostly below about 6.7%;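 note: stock transfer was 7.5 nL into about 10 µL; 0% = median of vehicle wells and 100% = median of positive control wells; one replicate is shown; the record names a cut of 25% in any replicate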
T cruzi repl: inhibitors of intracellular T. cruzi growth, primary screen, luminescence, NIH3T3 host cells; T. cruzi beta-gal in NIH3T3, 90 h; hit rate 1.4% among 300,000; inhibition, % (test concentration not listed);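 active = mean inhibition across valid replicates above about 55%, limit read from the data; inconclusive = mean below that limit but half or more replicates reach it; inactive = mean below it, under half of replicates reach it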;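 note: signal also drops with host cell toxicity which is not excluded here; 0% = plate median of DMSO wells and 100% = zero luminescence signal; higher percent means less beta-gal luminescence so fewer parasites; stock transfer was 50 nL into about 50 µL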
AF4-AF9 inh: inhibitors of AF4 peptide binding to AF9, primary screen, biochemical, AlphaScreen, biotin-AF4 peptide, FLAG-AF9, single point. Protein AF-9 (Homo sapiens), P42568. inhibition, % at 10 µM. hit rate 0.47% among 350,000. AID 651704, 2012;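 active = every replicate reaching a set inhibition limit, whatever the replicate mean, cut at about 25% in these data; inconclusive = mean inhibition reaches that limit but some replicates miss it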;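 note: 0% = plate neutral control median and 100% = total signal loss; the record names both 10 and 1 µM as test concentration; the first replicate is given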
Target sequence (P42568 whole entry, looked up): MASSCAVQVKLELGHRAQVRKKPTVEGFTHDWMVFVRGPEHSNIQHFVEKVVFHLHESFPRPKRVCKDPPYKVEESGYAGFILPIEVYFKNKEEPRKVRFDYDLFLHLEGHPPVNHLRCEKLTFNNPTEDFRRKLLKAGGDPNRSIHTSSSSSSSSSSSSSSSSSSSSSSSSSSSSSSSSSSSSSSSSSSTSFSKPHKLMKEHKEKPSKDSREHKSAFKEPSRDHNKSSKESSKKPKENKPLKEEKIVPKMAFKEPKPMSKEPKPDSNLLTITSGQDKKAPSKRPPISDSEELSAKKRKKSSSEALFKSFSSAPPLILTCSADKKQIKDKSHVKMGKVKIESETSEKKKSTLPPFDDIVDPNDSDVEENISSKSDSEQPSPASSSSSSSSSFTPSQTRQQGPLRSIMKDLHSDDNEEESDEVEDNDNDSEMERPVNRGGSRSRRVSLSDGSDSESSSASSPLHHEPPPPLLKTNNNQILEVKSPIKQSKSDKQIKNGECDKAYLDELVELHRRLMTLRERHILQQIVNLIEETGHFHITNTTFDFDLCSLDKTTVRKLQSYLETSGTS
Calb FLC: C. albicans growth inhibition with fluconazole, primary screen, CaCi-2 strain, Alamar Blue fluorescence | C. albicans CaCi-2 (fluconazole-resistant clinical isolate) + fluconazole, 48 h | growth inhibition, % (concentration not given with the values) | hit rate 0.57% among 300,000;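 active = most replicates above 75%; inconclusive = exactly half above 75%; inactive = most below 75%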;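 note: all wells also contain fluconazole at 8 µg/ml as a sub-toxic cotreatment; 0% = median of DMSO wells and 100% = median of geldanamycin control wells; wells of about 8 µL received 7.5 nL stock; the first replicate is given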
Vif TR-FRET: inhibitors of Vif binding to APOBEC3G peptide, primary screen, biochemical, TR-FRET, GST-Vif 1-94, biotin-A3G peptide, dose response retest (AID 1117319). Virion infectivity factor (Human immunodeficiency virus type 1 group M subtype B (isolate …. TR-FRET GST-Vif / biotin-A3G peptide binding; higher % means a stronger effect; test concentration not given here; strong numbers were not always called active. inhibition, %; hits with a dose series show IC50 in µM. hit rate 0.57% among 260,000;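 active = above the screen mean plus three standard deviations and confirmed in dose response; inconclusive = results disagree or hit not tested in dose response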;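 note: Vif residues 1-94 fused to GST binding biotinylated APOBEC3G peptide 110-148; 0% = full assay without inhibitor and 100% = GST in place of GST-Vif; retest series ran down from 100 µM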
Beta cell apopt: inhibitors of cytokine-induced beta cell apoptosis, primary screen, luminescence; INS-1E cytokine-induced death, ATP luminescence, 48 h; percent of positive-control rescue, neutral wells zero; protection from apoptosis, % (no concentration beside the values); hit rate 0.8% among 300,000;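 active = all replicates at 75% or more, or half of them and the mean; inconclusive = half reach 75% but not the mean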;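 note: 0% = cytokine-treated negative control wells and 100% = positive control rescue; higher means more ATP so stronger rescue from cytokine killing; wells of about 40 µL received 100 nL stock; the first replicate is given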
A1 inh: caspase 3/7 activation in MEF A1-2A-BIM cells, primary screen, A1 inhibitor project, cell-based, luminescence, HTS. Caspase-Glo 3/7 luminescence, 3 h; percent of clofoctol response, vehicle zero. caspase activation, % (no concentration beside the values). hit rate 0.066% among 330,000;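 active = over half of replicate activation scores above 10%, or exactly half above 10 with the replicate mean above 10; inconclusive = replicate mean below 10 yet half the replicates above 10; inactive = over half of replicates below 10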;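 note: wells of about 30 µL received 50 nL stock; many hits fall short of the cut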
The depositor's hits bear a star; i = inactive; ? = inconclusive; nt = no result given.

SMILES | RanGTP-Impb inh | LANA-H2A inh | T cruzi repl | AF4-AF9 inh | Calb FLC | Vif TR-FRET | Beta cell apopt | A1 inh
Cc1cc(C(=O)CSc2nnnn2C)c(C)n1CCc1ccc(F)cc1 | 2.3 | -0.1 | 8 | nt | 17 | 15% | -3 | 0.5
CCS(=O)(=O)N1CCC(C(=O)Oc2ccccc2OC)CC1 | 0.1 | -4.0 | -9 | 6.6 | -10 | nt | -4 | 0.1
COc1ccccc1/C=C(/C(=O)OCC(=O)N(C)Cc1ccccc1)c1ccccc1 | -2.2 | 6.7 | -6 | nt | 26 | 7% | -9 | 0.1
O=C(O)c1ccccc1-c1ccccc1C(=O)Nc1ccc(F)cc1 | 5.1 | -2.4 | -5 | -0.3 | -5 | -9% | 0 | 0.2
NC(=O)Cn1c(=O)n(C2CCCCC2)c(=O)c2c3c(sc21)CCCCC3 | -0.5 | -3.8 | 44 | -4.4 | 4 | nt | 6 | 1.4
CCOc1ccc(C2C(C#N)=C(N)Oc3n[nH]c(C)c32)cc1OC(=O)C1CC1 (stereo not given) | 0.3 | 2.0 | -8 | nt | 9 | 5% | -2 | 0.1
COC(=O)c1ccccc1NC(=O)CCS(=O)(=O)c1cc2c(cc1C)NC(=O)CO2 | -2.5 | 1.1 | 13 | -9.1 | -4 | nt | 3 | -0.5
O=C(NCc1ccc(OC(F)(F)F)cc1)C1CC(c2c(Cl)cccc2Cl)=NO1 (stereo not given) | 4.9 | 3.8 | 14 | -26 | -6 | 0% | -3 | -3.0
COc1ccc(NC(=O)[C@@H]2CC=C[C@@H]3CCN(C4CCCCC4)C(=O)[C@@H]32)cc1 | 1.2 | -1.8 | 3 | nt | -12 | nt | -5 | 1.2
O=[N+]([O-])c1ccc(Nc2ccccc2)c2nonc12 | 1.9 | 1.2 | 6 | 6.2 | 89* | nt | 14 | -0.1
CCOC(=O)C1=C(O)CCn2c1nc1ccccc12 | -6.3 | -0.8 | -5 | -17 | 2 | 11% | 6 | -0.6
COC(=O)c1ccc(/C=N/N2CCN(Cc3ccccc3)CC2)cc1 | 0.4 | -1.6 | 24 | nt | -6 | 3% | 1 | 0.3
O=C(N/N=C/c1cc2c(cc1Cl)OCO2)c1ccccn1 | 3.0 | -2.9 | -4 | 2.3 | -10 | nt | 6 | -5.4
CCOC(=O)C1CCN(C(=O)CCNC(=O)c2cc(OC)c(OC)c(OC)c2)CC1 | 2.7 | 6.3 | -25 | nt | 0 | 20% | 3 | -0.3
CNC(=O)Nc1cc(NC(=O)NC)cc(C(F)(F)F)c1 | -1.7 | 0.7 | -26 | -0.5 | 4 | 0% | -7 | -0.4
CCCCC(=O)OCc1c(-c2cccc(OC)c2)ncc2ccccc12 | nt | -3.7 | nt | -2.3 | nt | nt | -2 | -0.4
Cn1ccnc1C(=O)c1cc(SCC(=O)NC2CC2)nc2ccccc12 | 0.8 | -3.1 | -23 | -1.9 | 6 | -7% | -6 | 0.0
COc1ccc2nc(SCCOC(=O)Nc3ccc(Cl)cc3)nc(C)c2c1 | 1.2 | -8.2 | 11 | nt | 16 | 18% | 0 | 0.5
O=C(COc1ccc(F)c(Cl)c1)Nc1ccc(N2CCOCC2)cc1 | nt | 2.3 | nt | 8.1 | nt | 3% | -2 | 1.4
O=c1[nH]c2ccc(Cl)cc2c(=O)n1Cc1ccco1 | 0.6 | -6.1 | -10 | nt | -2 | -3% | -2 | -0.4
COc1ccc(CN2CCNC(=O)C2CC(=O)N(C)Cc2ccon2)c(F)c1 (stereo not given) | 0.5 | -7.9 | -1 | -0.5 | 6 | 4% | nt | 0.5
CCOc1cc(S(=O)(=O)N2CCN(CC)CC2)ccc1Cl | 6.1 | -0.5 | 9 | nt | -1 | 27% | -11 | 1.1
CCc1ccc(NC(=O)C2CCN(S(=O)(=O)c3c(C)[nH]c(=O)[nH]c3=O)CC2)cc1 | -2.4 | 4.6 | 11 | -2.5 | ? | ? | 5 | 0.9
O=C1NC(=O)/C(=C\c2cn(CC(=O)N3CCOCC3)c3ccccc23)S1 | ? | 7.2 | -6 | -0.3 | -19 | -3% | 0 | -0.7
COc1ccccc1C(=O)N(CCN(C)C)c1nc2cc(C)cc(C)c2s1 | -3.0 | -1.4 | 45 | 20 | -24 | -1% | -3 | 1.0
COc1ccc(-c2cc3nc(C)cc(NCCO)n3n2)cc1 | 0.7 | 1.6 | -2 | nt | 25 | -3% | -2 | 0.4
NS(=O)(=O)c1ccc(Sc2nc3ccccc3s2)c([N+](=O)[O-])c1 | 1.6 | 2.6 | 20 | 4.2 | 13 | 14% | 5 | 1.7
CCN(Cc1ccncc1)C(=O)c1cc(COc2ccc(F)cc2Cl)on1 | 0.7 | -1.4 | 47 | 1.5 | -29 | nt | 5 | 0.2
Cc1ccc([N+](=O)[O-])c(OCCn2cnc3ccccc32)c1 | ? | 1.1 | 3 | -2.7 | -4 | 1% | 1 | -0.8
COc1ccc(NC(=O)CN2CCN(c3ccccc3Cl)CC2)cc1 | 2.7 | 5.1 | -13 | nt | 3 | 2% | 1 | -0.3

Reprinted from the part before: five compounds; new compounds follow.
SMILES | RanGTP-Impb inh | LANA-H2A inh | T cruzi repl | AF4-AF9 inh | Calb FLC | Vif TR-FRET | Beta cell apopt | A1 inh
COc1ccc(-c2cc3nc(C)cc(NCCO)n3n2)cc1 | 0.7 | 1.6 | -2 | nt | 25 | -3% | -2 | 0.4
NS(=O)(=O)c1ccc(Sc2nc3ccccc3s2)c([N+](=O)[O-])c1 | 1.6 | 2.6 | 20 | 4.2 | 13 | 14% | 5 | 1.7
CCN(Cc1ccncc1)C(=O)c1cc(COc2ccc(F)cc2Cl)on1 | 0.7 | -1.4 | 47 | 1.5 | -29 | nt | 5 | 0.2
Cc1ccc([N+](=O)[O-])c(OCCn2cnc3ccccc32)c1 | ? | 1.1 | 3 | -2.7 | -4 | 1% | 1 | -0.8
COc1ccc(NC(=O)CN2CCN(c3ccccc3Cl)CC2)cc1 | 2.7 | 5.1 | -13 | nt | 3 | 2% | 1 | -0.3
Cc1ccc(C(=O)NCCN2CCOCC2)cc1C | -1.8 | -1.1 | -12 | 0.2 | -7 | nt | 7 | 0.3
COc1ccc(Cl)cc1NC(=O)CN1C(=O)NC(Cc2c[nH]c3ccccc23)C1=O (stereo not given) | nt | 1.4 | nt | 7.9 | nt | 9% | 0 | 0.0
C=CCOn1c(=O)c(-c2ccc(OC)cc2)[n+]([O-])c2ccccc21 | -0.8 | -7.0 | 0 | nt | -1 | 3% | 6 | -1.0
Cc1ccc(-c2nnn(CC(=O)N(c3cccc(F)c3)C(C(=O)NC3CCCC3)c3ccncc3)n2)o1 (stereo not given) | ? | 0.0 | -8 | -4.7 | -47 | nt | -4 | -0.2
O=C(COC(=O)c1ccco1)Nc1ccc2[nH]c(=O)[nH]c2c1 | nt | -22 | nt | 1.2 | nt | nt | -1 | -0.8
Cc1ccc(C)c(-n2c3nc(=O)[nH]c(=O)c-3cc3cc([N+](=O)[O-])ccc32)c1 | nt | i | nt | -16 | nt | ? | -2 | 0.4
COc1ccc(NC(=O)c2cccc(S(=O)(=O)N3CCCC3)c2)cc1OC | nt | -3.4 | nt | -2.8 | nt | nt | -8 | 0.2
CC(CCN1C(Nc2ccccc2)=NC[C@@H]1Cc1ccccc1)c1ccccc1 (stereo not given in full) | -1.5 | -4.3 | 18 | nt | -28 | nt | 9 | 0.3
CSc1nc(-c2ccccc2)nn1C(=O)c1ccco1 | 2.6 | -0.7 | 0 | nt | -3 | -4% | 0 | 1.1
O=C(CN1CCN(C/C=C/c2ccccc2)CC1)Nc1cc([N+](=O)[O-])ccc1Cl | -1.7 | 0.4 | 35 | nt | -24 | -1% | -1 | 0.5
COc1ccccc1N1C(=O)CSC1=S | -5.8 | 2.1 | -10 | -0.1 | 4 | nt | 6 | 1.0
Cc1ccc(CNc2cnn(C34CC5CC(CC(C5)C3)C4)c(=O)c2Cl)cc1 | -0.3 | 4.8 | 37 | nt | 3 | 0% | 5 | 0.7
CCN(CC)CCCNC(=O)c1ccc(C)c(NC(=O)C2=C(C)OCCS2)c1 | -0.5 | 1.5 | 9 | 0.1 | -9 | -2% | 0 | 0.3
C#CCOCCOCCOCCNc1nc(N2CCN(C(=O)[C@H](CCCCN)n3cc([C@@H](N)CO)nn3)CC2)nc(N2CCN(C(=O)[C@H](Cc3cc4ccccc4[nH]3)n3cc([C@@H](N)Cc4ccc(O)cc4)nn3)CC2)n1 | -2.2 | -9.9 | -7 | nt | 9 | 6% | 6 | 1.0
CS(=O)(=O)N1CCC(Oc2cccc(C(=O)NCCCC3CCCC3)c2)CC1 | 8.6 | 0.3 | 4 | nt | 0 | -1% | 24 | 0.0
COc1ccccc1-c1noc(-c2cccnc2)n1 | 6.8 | -4.0 | -3 | nt | -13 | 17% | -3 | -2.5
Brc1cnc2nc(SC/C=C/c3ccccc3)[nH]c2c1 | ? | -3.6 | -16 | -3.9 | -2 | ? | 1 | 1.1
Nc1cc2c(cc1C(=O)c1ccc(Cl)cc1)OCCO2 | -2.4 | -3.6 | 10 | nt | 41 | ? | -7 | -0.2
Cc1cccn2cc(CCNC(=O)Cc3cccs3)nc12 | -1.4 | -4.7 | -20 | -19 | 0 | 1% | -4 | 0.2
Cc1ccc(C(=O)NC(Cc2c[nH]c3ccccc23)C(=O)O)o1 (stereo not given) | -0.7 | 0.5 | -9 | nt | -4 | 7% | -3 | -0.5
CCOC(=O)c1ccc(N2C(=O)CC(Sc3nnc(C)s3)C2=O)cc1 (stereo not given) | 0.6 | 0.9 | 11 | nt | 2 | -8% | -3 | -0.4
CCCN(CC(=O)Nc1ccccc1C)C(=O)c1ccc(C2SCCS2)cc1 | -0.4 | 0.6 | 1 | -1.0 | nt | nt | 2 | 0.9
CC(C(=O)Nc1ccc(S(=O)(=O)N2CCCC2)cc1)N(C)CC(=O)Nc1cccc(F)c1 (stereo not given) | nt | -3.8 | nt | 1.2 | nt | nt | 10 | 0.2
Cc1cccn2c(=O)nc(SCC(=O)Nc3ccc4c(c3)OCCO4)nc12 | 5.0 | -2.4 | 3 | -5.9 | 13 | -3% | 3 | -0.2
COc1cc2c(cc1OC)CN(Cc1cc(=O)oc3cc(C)c(Cl)cc13)CC2 | 23* | 1.1 | 15 | nt | -19 | 26% | 5 | -0.3
CC1(C(=O)N(CC(=O)NC2CCCC2)Cc2ccco2)CC(=O)N=C2C=CC=CN21 (stereo not given) | 4.1 | 3.8 | -13 | nt | -4 | -2% | -4 | 0.2

Source: PubChem

Compounds as they come; any-hit rate near 4.3%.
